KCNQ2 pot – potentiators of rat KCNQ2 potassium channel | B-score at 10 µM | CHO-K1 KCNQ2, FluxOR thallium flux fluorescence; active compounds read high | 310,000 tested, 0.54% active | O88943 | AID 2239;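 active = fluorescence ratio B-score at least 3 SD of library B-scores, with initial fluorescence B-score within 3 SD, cut at about 5.3 in these data; same plate scores as AID 2156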;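 also: B-score of peak minus minimum over baseline fluorescence ratio after K+ and Tl+ stimulus; positive B-score means potentiation of KCNQ2 with more thallium influx and brighter signal; only the inactives scoring about 0 or higher are listed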
Target sequence (O88943 whole entry, looked up): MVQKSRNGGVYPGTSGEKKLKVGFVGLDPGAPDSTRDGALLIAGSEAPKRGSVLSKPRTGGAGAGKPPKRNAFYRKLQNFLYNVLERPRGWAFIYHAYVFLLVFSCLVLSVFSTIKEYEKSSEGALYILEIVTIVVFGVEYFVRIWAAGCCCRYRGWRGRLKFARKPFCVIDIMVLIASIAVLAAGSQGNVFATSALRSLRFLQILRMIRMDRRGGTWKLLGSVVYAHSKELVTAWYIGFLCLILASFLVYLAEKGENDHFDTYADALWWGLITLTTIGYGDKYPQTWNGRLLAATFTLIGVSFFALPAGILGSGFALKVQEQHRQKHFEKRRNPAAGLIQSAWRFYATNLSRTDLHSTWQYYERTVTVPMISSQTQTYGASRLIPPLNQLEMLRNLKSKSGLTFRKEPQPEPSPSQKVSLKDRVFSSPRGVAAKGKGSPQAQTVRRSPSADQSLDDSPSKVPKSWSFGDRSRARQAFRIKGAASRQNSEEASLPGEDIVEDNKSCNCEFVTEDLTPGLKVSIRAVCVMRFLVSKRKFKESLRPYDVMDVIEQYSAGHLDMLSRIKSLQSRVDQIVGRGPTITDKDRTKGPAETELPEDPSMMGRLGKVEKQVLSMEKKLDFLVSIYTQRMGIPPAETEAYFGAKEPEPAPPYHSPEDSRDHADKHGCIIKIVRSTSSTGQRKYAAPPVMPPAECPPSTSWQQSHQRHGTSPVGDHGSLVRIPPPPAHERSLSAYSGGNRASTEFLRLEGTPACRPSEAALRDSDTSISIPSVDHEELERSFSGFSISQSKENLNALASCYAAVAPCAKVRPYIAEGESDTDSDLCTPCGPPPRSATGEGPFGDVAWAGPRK
KCNQ2 pot baseline – also measured in KCNQ2 pot; calls as there; B-score; compound at 10 µM; measured here: initial fluorescence intensity artifact check;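 brightness before thallium and not channel activity; 0 = typical well and far values either way flag optical interference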
An asterisk follows results filed as active. This is a subset. The share of hits here may be higher or lower than overall.

The first 2 compounds (preview)
SMILES | KCNQ2 pot | KCNQ2 pot baseline
O=C(CSc1ccc(C(F)(F)F)cc1[N+](=O)[O-])Nc1ccc2ccccc2c1 | 0.17 | 0.03
CCOC(=O)C1=C(C)C(c2ccc(OC)cc2OC)NC(=O)N1 (stereo unspecified) | 0.06 | 3.83

This part in full, from the first entry:
SMILES | KCNQ2 pot | KCNQ2 pot baseline
O=C(CSc1ccc(C(F)(F)F)cc1[N+](=O)[O-])Nc1ccc2ccccc2c1 | 0.17 | 0.03
CCOC(=O)C1=C(C)C(c2ccc(OC)cc2OC)NC(=O)N1 (stereo unspecified) | 0.06 | 3.83
Cc1ccc(N2C(=O)NC(C(F)(F)F)(C(F)(F)F)C3=C2CC(C)(C)CC3=O)cc1 | 0.74 | -1.88
Cc1cccc(NC(=O)/C(C#N)=C\c2cc(C)n(-c3ccc(C(=O)O)cc3)c2C)c1 | 1.99 | -2.34
CC(=O)NC1CC2CCCC(C1)N2C(=O)Nc1ccc(Cl)c(C(F)(F)F)c1 (stereo unspecified) | 2.37 | 1.08
CCNC(=S)N(Cc1c(C)noc1C)c1ccccc1 | 0.79 | -1.95
Cc1ccc(NC(=O)c2cccs2)cc1NC(=O)c1cccnc1 | 1.12 | -0.58
Cc1nc(NC(=O)CSc2nc3cccnc3n2C2CCCCC2)sc1C | 0.31 | 0.03
Cc1csc(NC(=O)CCCSc2nc3ccccc3s2)n1 | 2.17 | 0.02
COC(=O)CCc1c(C)c(C(=O)c2cc(F)c(F)c(F)c2F)c2ccccn12 | 1.44 | -1.43
CSc1ccc(NC(=O)NCc2cccnc2)cc1 | 0.26 | 1.15
CC(C)OCC(O)Cn1c(N2CCCC2)nc2c1c(=O)[nH]c(=O)n2C (stereo unspecified) | 0.49 | -1.18
Cc1ccnc(SCc2cc(=O)c(OC(=O)c3ccc(S(=O)(=O)N(C)C)cc3)co2)n1 | 0.77 | -0.28
CC(=O)N1CCn2c3c(c4cc(C)ccc42)CCCC31 (stereo unspecified) | 0.68 | -0.09
CCS(=O)(=O)N1CCN(c2nc(-c3ccccc3)cs2)CC1 | 0.06 | 0.9
COc1ccc(CCNC(=O)Cc2cccc(C(F)(F)F)c2)cc1OC | 0.6 | 0.94
c1ccc(Cc2nnc3sc(-c4ccccn4)nn23)cc1 | 0.01 | -0.26
CC(=O)C(Cc1cnc(Cl)s1)(Cc1cnc(Cl)s1)C(C)=O | 0.79 | 1.04
CC(=O)CC1(O)C(=O)N(Cc2ccccc2)c2ccccc21 (stereo unspecified) | 0.22 | 0.14
COc1c(F)c(F)c(C(=O)O)c(Nc2cc(C)cc(C)c2)c1F | 0.75 | -0.12
COc1cccc(C2C(C(=O)c3ccc(C)o3)=C(O)C(=O)N2CCN2CCOCC2)c1OC (stereo unspecified) | 1.5 | 1.25
Cc1ccc(S(=O)(=O)NCCC(=O)NCC(c2ccco2)N2CCCCC2)cc1C (stereo unspecified) | 0.83 | -0.45
CCCc1cc(C(=O)NC2CCCCC2)no1 | 1.14 | -0.69
Nn1c(COc2ccccc2F)nnc1SCC(=O)NC1CCCCC1 | 0.03 | 0.76
COCCCn1c(SCC(=O)NCc2ccccc2)nc2ccccc2c1=O | 1.22 | -0.71

Additional structures:
SMILES | KCNQ2 pot | KCNQ2 pot baseline
COCCNC(=O)c1onc(CSc2ccc(C(C)C)cc2)c1C(=O)O | 0.93 | -1.17
COCCNS(=O)(=O)c1ccc(C2CNC(=O)C2)cc1 (stereo unspecified) | 2.64 | -1.62
CC(C)(C)n1nnc(CCc2nnn(C(C)(C)C)n2)n1 | 0.71 | -1.21
COc1ccc(N(CC(=O)NCCSCc2ccccc2C)S(=O)(=O)c2ccccc2)cc1 | 0.72 | -0.21
OCC1(CCCc2ccccc2)CCN(C2CCC2)CC1 | 0.3 | 1.07
CC(C)(C)N=Cc1cc(-c2ccccc2)sc1O | 1.23 | -1.22
CCCCn1c(N)c(N(CCOC)C(=O)C2CCN(S(=O)(=O)c3ccccc3)CC2)c(=O)[nH]c1=O | 0.53 | 0.57
COc1cc(C(=O)Nc2nnc(S(=O)(=O)N3CCCCCC3)s2)cc(OC)c1OC | 0.54 | -0.87
Cc1cc2c(ncn2Cc2ccccc2)c(N)c1C | 0.11 | 0.24
O=C(c1cccn2c(=O)c3ccccc3nc12)N1CCN(c2ccccn2)CC1 | 0.46 | -0.68
Cc1nc(NC(=S)NC(=O)COc2ccc(Cl)cc2)ccc1Br | 1.03 | -0.4
Cc1ccc(N(C(=O)C2CCCC2)C2C=CS(=O)(=O)C2)cc1C (stereo unspecified) | 0.15 | -0.27
COCCn1cnc2c1c(=O)n(Cc1cc(C(C)=O)ccc1OC)c(=O)n2Cc1ccccc1 | 0.28 | 0.38
Cc1ccc2occ(/C=N/NC(=O)c3ccc(Cl)cc3)c(=O)c2c1 | 0.08 | -0.74
Cc1cc(C(=O)N/N=C/c2cccc(Cl)c2Cl)no1 | 0.39 | -0.18
CC(C)(C)OC(=O)N1CCC(Cc2cc(-c3cccc(Br)c3)no2)(C(=O)O)CC1 | 0.59 | 0.7
O=C(Cn1cnc2ccccc21)NC(c1ccccc1)c1ccccc1 | 0.02 | -0.23
COc1ccccc1CNC(=O)CCC(=O)Nc1nnc(C(C)C)s1 | 0.85 | 2.06
O=C(CSc1nncc(=O)[nH]1)NCc1ccccc1 | 0.15 | -1.69
CC(C)OP(=O)(OC(C)C)C1(NS(=O)(=O)c2ccc(Cl)cc2)C=C(Cl)C(=O)C(Cl)=C1 | 0.38 | -0.01
CCc1ccc2nc(N3CCN(C)CC3)c(C#N)cc2c1 | 0.57 | 0.63
Cc1cccc(CSc2nnc(NC(=O)c3ccco3)s2)c1 | 0.93 | 1.85
O=c1cc(-c2cc3ccccc3o2)c2cc(O)ccc2o1 | 0.93 | -1.03
COc1cc(OC)c(OC)cc1CCC(C)NC(=O)Cc1ccccc1 (stereo unspecified) | 0.09 | 1.19
COc1cc(C)nc2nc(SCc3ccccc3)nn12 | 0.2 | 0.78

Whole records as entered above. Order of screens: KCNQ2 pot, KCNQ2 pot baseline
Cc1cccc(CSc2nnc(NC(=O)c3ccco3)s2)c1 is listed with 0.93, 1.85
COCCNC(=O)c1onc(CSc2ccc(C(C)C)cc2)c1C(=O)O is listed with 0.93, -1.17
CCCCn1c(N)c(N(CCOC)C(=O)C2CCN(S(=O)(=O)c3ccccc3)CC2)c(=O)[nH]c1=O is listed with 0.53, 0.57
O=C(Cn1cnc2ccccc21)NC(c1ccccc1)c1ccccc1 is listed with 0.02, -0.23
COCCn1cnc2c1c(=O)n(Cc1cc(C(C)=O)ccc1OC)c(=O)n2Cc1ccccc1 is listed with 0.28, 0.38

Next section.
SMILES | KCNQ2 pot | KCNQ2 pot baseline
CC(C)Sc1nc2ccccc2c(=O)[nH]1 | 0.23 | 0.72
Cc1cc(NC(=O)c2cc3nc(C4CC4)cc(C(F)(F)F)n3n2)no1 | 1.25 | -0.05
CC(C)OC(=O)CSc1n[nH]c(-c2cccnc2)n1 | 0.02 | 0.02
OC(COCc1cccs1)CN1CCN(c2ccccn2)CC1 (stereo unspecified) | 0.23 | -1.89
O=C(Nc1ccccn1)c1sc2cc([N+](=O)[O-])ccc2c1Cl | 1.11 | -0.83
CCCCC(=O)OCC(=O)Nc1ccc(SC(F)F)cc1 | 0.99 | -1.4
COC(=O)c1ccc(NC(=S)N2CCN(Cc3ccccc3OC)CC2)cc1 | 1.61 | 0.34
Cc1nn(C)cc1C1C2=C(CC(C)(C)CC2=O)OC2=C1C(=O)CC(C)(C)C2 | 1.21 | -1.09
COc1cccc(C2CC(c3ccccc3Cl)Nc3nc(N)nn32)c1 (stereo unspecified) | 0.95 | -0.72
COCCn1c(SCC(N)=O)nc2c(c1=O)SC(C)C2 (stereo unspecified) | 0.84 | -1.38
CC(=O)Nc1ccc(OCC(O)CN2CCN(c3cc(Cl)ccc3C)CC2)cc1 (stereo unspecified) | 0.19 | 0
CC(C)Oc1ccc(C(=O)NC2(C(F)(F)F)N=C3SCCN3C2=O)cc1 (stereo unspecified) | 0.8 | 1.24
O=C(NC1(C(F)(F)F)N=C(c2ccccc2)NC1=O)c1ccc(Cl)cc1Cl (stereo unspecified) | 0.1 | 0.31
CCOC(=O)c1ccc(NS(=O)(=O)c2c(N)[nH]c(=O)[nH]c2=O)cc1 | 0.73 | 0.68
CCOP(=O)(OCC)C(NC(=O)Nc1ccc(Cl)c(Cl)c1)c1ccccc1 (stereo unspecified) | 0.38 | -0.29
c1coc(-c2nnc3sc(Cc4cccs4)nn23)c1 | 0.86 | -0.39
Cc1ccc(-n2nnnc2-c2cnc3ccc(Cl)cc3c2-c2ccccc2)cc1 | 0.02 | 0.87
CNC(=O)c1ccccc1NC(=O)C1CC(=O)N(c2ccc(OC)cc2)C1 (stereo unspecified) | 0.02 | 0.56
CCOc1ccc(NC(=O)c2ccc3c(=O)n4c(nc3c2)CCCCC4)cc1 | 0.84 | 1.28
O=C(C1CCCO1)N1CCN(S(=O)(=O)c2cc(F)ccc2F)CC1 (stereo unspecified) | 0.02 | -0.67
COc1ccc(NC(C)=O)cc1NC(=O)CSc1nnc(-c2ccccc2)n1N | 0.84 | -1.02
NC(=O)[C@@H]1CCCNc2c(I)cc([N+](=O)[O-])cc2C(=O)N[C@@H](Cc2ccccc2)C(=O)N[C@@H](Cc2cnc[nH]2)C(=O)N1 | 0.74 | 0.36
O=C(O)c1c(-c2ccccc2)nnc2ccccc12 | 0.1 | 1.77
CC(C)[C@H](NC(=O)N1CCn2c1nc1ccccc12)C(=O)N1CCCCC1 | 0.42 | -0.39
O=S1(=O)Cc2cc3ccccc3cc2C1 | 0.92 | -0.07

(further entries)
SMILES | KCNQ2 pot | KCNQ2 pot baseline
Cc1cc(C)[n+](-c2ccc(F)cc2)c2[nH]c(=O)[nH]c(=O)c12 | 0.44 | 0.72
CCOCCn1c(=O)c2c(nc3n2CCCN3CCc2ccccc2)n(C)c1=O | 1.2 | 1.36
O=C(O)C1=C[C@H](c2ccc(Br)cc2)C[C@H](OCc2ccc(CO)cc2)O1 | 0.38 | 0.45
O=C(Nc1c2c(nn1-c1ccc(F)cc1)CS(=O)C2)c1ccc(S(=O)(=O)N2CCOCC2)cc1 (stereo unspecified) | 0.85 | 0.64
Cc1cccc(C(=O)NCCN2CCOCC2)c1[N+](=O)[O-] | 0.16 | -0.17
CSCCC(NC(=O)c1ccco1)C(=O)OCc1cc([N+](=O)[O-])cc2c1OCOC2 (stereo unspecified) | 0.01 | 1.29
COC(=O)c1ccc(COc2ccc3c(C)c(C)c(=O)oc3c2)o1 | 0.55 | -0.26
CCC(C(=O)OCC(=O)Nc1c(C)nn(-c2ccccc2)c1C)c1ccccc1 (stereo unspecified) | 0.07 | -0.08
CC1=C([N+](=O)[O-])C(c2ccccc2)C2=C(N1)c1ccccc1C2=O (stereo unspecified) | 0.68 | -1.72
COc1ccc(NC(=O)/C=C/c2cc(OC)c(OC)c(OC)c2)cn1 | 0.62 | -0.02
CC(C)=CC[N+]1(C)CCCCC1 | 1.23 | -0.02
Cc1c([N+](=O)[O-])nnn1-c1cc(Cl)cc(Cl)c1 | 0.17 | 1.14
CC(C)CC(C(=O)Nn1cnnc1)N1C(=O)c2ccccc2C1=O (stereo unspecified) | 1.55 | -0.75
Cc1nc2scc(C)n2c(=O)c1S(=O)(=O)Nc1ccc(F)cc1 | 1.71 | 1.69
CC(C)NC(=O)CCn1ccc2cc(S(=O)(=O)N3CCCC3)ccc21 | 0.78 | -0.01
CCOC(=O)c1[nH]cnc1C(=O)Nc1ccncc1 | 1.4 | -0.21
CCOC(=O)C1CCCN(C(=O)COC(=O)c2cc(=O)c3ccccc3o2)C1 (stereo unspecified) | 0.77 | -0.78
Cc1ccc(CC(=O)NC2CCN(C)CC2)cc1 | 0.55 | -0.54
Cc1cc(C(=O)Nc2ncn(Cc3ccc(F)cc3)n2)ccc1[N+](=O)[O-] | 1.44 | 0.99
CSc1ncc(OCc2ccccc2)c(=O)[nH]1 | 0.04 | 0.39
O=C(/C=C/c1ccco1)NC(=S)Nc1nc(-c2ccc(Cl)cc2)cs1 | 0.31 | 0.51
Cc1c(C(=O)Nc2cccnc2)oc2ccc(Br)cc12 | 0.21 | -1.73
COc1cc2cc(C(=O)Nc3ccccc3)c(N)nc2cc1OC | 1.53 | 1.18
Cc1noc(C)c1C(=O)N1CCN(c2cccc(Cl)c2)CC1 | 0.8 | 1.64
Cc1nn2c(-c3cccc(NC(=O)CN4CCOCC4)c3)nnc2c2ccccc12 | 0.39 | -0.51

Five consecutive compounds from above, quoted:
SMILES | KCNQ2 pot | KCNQ2 pot baseline
CCOC(=O)c1[nH]cnc1C(=O)Nc1ccncc1 | 1.4 | -0.21
CCOC(=O)C1CCCN(C(=O)COC(=O)c2cc(=O)c3ccccc3o2)C1 (stereo unspecified) | 0.77 | -0.78
Cc1ccc(CC(=O)NC2CCN(C)CC2)cc1 | 0.55 | -0.54
Cc1cc(C(=O)Nc2ncn(Cc3ccc(F)cc3)n2)ccc1[N+](=O)[O-] | 1.44 | 0.99
CSc1ncc(OCc2ccccc2)c(=O)[nH]1 | 0.04 | 0.39

The list goes on.
SMILES | KCNQ2 pot | KCNQ2 pot baseline
Cc1ccc(C2=[N+]([O-])C3(CCCCC3=O)N(O)C2(C)C)cc1 (stereo unspecified) | 1.67 | 0.01
CSc1nc2nc(C)cc(-c3ccccc3)n2n1 | 0.91 | -1.34
O=C(O)COc1ccccc1/C=N/NC(=O)COc1ccc(-c2ccccc2)cc1 | 0.66 | -0.07
Cc1cccc(N2CC(C(=O)Nc3nnc(SCCC4OCCO4)s3)CC2=O)c1 (stereo unspecified) | 0.2 | -0.33
COc1ccc(OC)c(CN2CCC(CO)(CCOc3ccccc3)CC2)c1 | 0.64 | 2.34
CCCCn1c(N)c(N(CCC(C)C)C(=O)c2ccc([N+](=O)[O-])o2)c(=O)[nH]c1=O | 0.57 | 1.29
S=C(Nc1ccc(Cl)cc1)NC1CC2CCCC(C1)N2C1CC1 (stereo unspecified) | 0.36 | 0.07

Assay outcomes as filed in PubChem BioAssay.
